High-throughput results: PubChem, several laboratories
AF4-AF9 inh = MLL-AF4/AF9 protein interaction inhibition | AlphaScreen, biotin-AF4 peptide binding to FLAG-AF9 | inhibition, % at 10 µM | P42568 | AID 651704 | 0.47% of 350,000 active;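 active = every replicate reaching a set inhibition limit, whatever the replicate mean, cut at about 25% in these data; inconclusive = mean inhibition reaches that limit but some replicates miss it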;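 also: 0% = plate neutral control median and 100% = total signal loss; the record names both 10 and 1 µM as test concentration; the first replicate is given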
E coli growth = E. coli growth inhibition; OD600 absorbance (concentration not given with the values); Escherichia coli growth, OD600, 23 h; stronger effect = lower value; AID 1053175; 0.21% of 330,000 active;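 active = OD600 absorbance below the run mean of sample wells minus 3.6 SD, in any replicate, cut at about 0.56 in these data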;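 also: stock transfer was 300 nL into about 60 µL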
FGF22 binding = shifts melting point of recombinant human FGF22; recombinant FGF22 thermal shift, SYPRO orange fluorescence; percent of sucrose octasulfate shift, DMSO zero; calls only at 9.99 µM; 1.5% of 340,000 active; AID 651658;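 active = melting point raised past a set limit in the mean and every replicate; inconclusive = no clear call; three in four hits are not shown here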
Target sequence (Q9HCT0 whole entry, looked up): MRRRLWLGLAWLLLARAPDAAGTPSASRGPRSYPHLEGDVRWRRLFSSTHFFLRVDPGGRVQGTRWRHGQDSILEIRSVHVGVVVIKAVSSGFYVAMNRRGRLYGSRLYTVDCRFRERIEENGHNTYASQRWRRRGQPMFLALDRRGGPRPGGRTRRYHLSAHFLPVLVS
Vif A3G = HIV-1 Vif–A3G interaction blockers – biochemical, TR-FRET, GST-Vif 1-94, biotin-A3G peptide, dose response retest, primary screen (AID 1117319). TR-FRET GST-Vif / biotin-A3G peptide binding; higher % means a stronger effect; test concentration not given here; strong numbers were not always called active. 0.57% of 260,000 active. one-dose inhibition, %; IC50 in µM for titrated hits;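 active = above the screen mean plus three standard deviations and confirmed in dose response; inconclusive = results disagree or hit not tested in dose response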;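 also: Vif residues 1-94 fused to GST binding biotinylated APOBEC3G peptide 110-148; 0% = full assay without inhibitor and 100% = GST in place of GST-Vif; retest series ran down from 100 µM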
ALR H2O2 inh = inhibitors of human sulfhydryl oxidase ALR. P55789. purified ALR, DTT oxidation, H2O2 HRP-luminol luminescence. inhibition, % (concentration not given with the values). 3.8% of 290,000 active;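 active = mean and each replicate at 75% or more; inconclusive = only one of the two met; inactive = neither met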;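 also: stock transfer was 7.5 nL into about 7.5 µL; 0% = neutral wells and 100% = wells with inactivated enzyme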
Target sequence (P55789 whole entry, looked up): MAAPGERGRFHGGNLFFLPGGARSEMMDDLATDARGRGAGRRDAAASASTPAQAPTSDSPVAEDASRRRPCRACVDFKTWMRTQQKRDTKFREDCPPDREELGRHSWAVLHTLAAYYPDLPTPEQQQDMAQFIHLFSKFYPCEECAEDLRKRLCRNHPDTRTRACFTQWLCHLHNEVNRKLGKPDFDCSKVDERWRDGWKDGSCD
rRNA inh HTS = inhibitors of bacterial rRNA selective over humanized ribosomes; E. coli WT GFP vs humanized-ribosome RFP mutants, fluorescence, 24 h; stronger effect = lower value; DMSO median 0, no signal -100; GFP signal change (wild-type ribosome), % (concentration not given with the values); 1.6% of 350,000 active;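 active = significant combined selectivity score with lowered wild-type GFP, culture density cut under 30%, mutant RFP and density less affected; inactive = any of these conditions unmet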; also: one replicate is shown; some compounds called inactive have numbers as strong as hits
HNF4A DNA FP = change in binding of human HNF4 alpha to DNA; P41235; HNF4a-FITC DNA binding, fluorescence polarization, 1 h; activity change, % at 10 µM; 0.3% of 360,000 active; in the data active = activity change above about 30%, passing the limit was not always enough;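 also: controls were the assay level and a saturating level of protein; the project sought stronger binding though the title names inhibitors; some compounds called inactive have numbers as strong as hits; positive values seem to mean higher polarization but the record does not say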
Target sequence (P41235 whole entry, looked up): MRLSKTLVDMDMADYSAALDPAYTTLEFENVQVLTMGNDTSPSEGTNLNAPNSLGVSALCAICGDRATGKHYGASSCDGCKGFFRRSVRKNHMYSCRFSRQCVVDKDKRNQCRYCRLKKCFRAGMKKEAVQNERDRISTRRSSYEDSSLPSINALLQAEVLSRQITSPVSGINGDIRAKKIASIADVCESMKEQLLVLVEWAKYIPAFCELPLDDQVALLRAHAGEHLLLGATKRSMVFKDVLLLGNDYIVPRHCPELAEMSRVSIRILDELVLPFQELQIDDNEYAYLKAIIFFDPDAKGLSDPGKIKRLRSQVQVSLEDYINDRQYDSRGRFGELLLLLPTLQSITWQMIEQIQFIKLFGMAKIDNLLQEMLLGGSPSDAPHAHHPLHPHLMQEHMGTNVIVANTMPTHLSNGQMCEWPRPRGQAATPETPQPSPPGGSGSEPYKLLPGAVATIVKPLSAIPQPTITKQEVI
rRNA inh HTS OD600 = also measured in rRNA inh HTS; calls as there; OD600 change, %; measured here: OD600 growth;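 optical density of the mix in the first replicate; 0 = DMSO median and -100 = no signal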
rRNA inh HTS RFP = recorded beside rRNA inh HTS, whose call it bears; RFP signal change, %; measured here: RFP humanized mutant strains;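 first replicate; 0 = DMSO median and -100 = no signal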
* marks the source's active call; other numbers are inactive results; i = inactive; ? = inconclusive; . = not tested or not shown; & = joins results of further samples. These rows are one share of the data; the hit share may differ from the screen's.

SMILES	AF4-AF9 inh	E coli growth	FGF22 binding	Vif A3G	ALR H2O2 inh	rRNA inh HTS	rRNA inh HTS OD600	rRNA inh HTS RFP	HNF4A DNA FP
Cc1cc(C)cc(Cn2cc(CN3CC(N4CCN(Cc5ccccc5F)CC4)CS3(=O)=O)nn2)c1 (centres undefined)	1.0	.	i	.	.	-21	-23	-0.7	-1.0
COC(=O)CCNC(=O)Cn1cnc2sc3c(c2c1=O)CCCC3	-2.6	0.66	i	10%	-3	10	4	0.4	0.1
CCN1C[C@@H]2[C@@H]3C(=O)N(Cc4ccccc4)C(=O)[C@@H]3[C@](Cc3ccccc3)(C(=O)OC)N2C1=NC1CCCCC1	-1.8	0.72	.	-6%	.	-2	-10	-0.4	-1.6
CN(C)CCNc1nc(-c2ccco2)c2c(c1C#N)CC(C)(C)OC2	.	0.67	.	-7%&-10%	-2	.	.	.	3.9
O=C(O)c1cccc(NS(=O)(=O)c2ccc(S(=O)(=O)N3CCOCC3)cc2)c1	-2.3	0.68	i	5%	.	15	3	3.0	-0.8
Cc1occc1C(=O)NNC(=S)Nc1ccccc1C(F)(F)F	4.7	0.61	i	.	19	-2	-1	0.7	-1.5
Cc1ccc(S(=O)Cc2ccc(C(=O)N3CCN(C4CCCCC4)CC3)o2)cc1 (centres undefined)	-3.1	0.68	i	.	0	7	-6	-5.8	-4.6
O=c1[nH][nH]c2cc(=O)n(-c3ccc(Cl)cc3)nc12	-4.2	.	i	?	2	13	11	1.6	-1.7
N#CC(C#N)=Cc1cn(-c2ncc(C(F)(F)F)cc2Cl)c2ccccc12	.	0.76	.	-4%	2	.	.	.	2.1
CCc1ccc(NC(=O)COC(=O)/C=C/c2c(C)nn(C3CCS(=O)(=O)C3)c2Cl)cc1 (centres undefined)	0.0	0.69	i	0%	-6	16	8	2.1	-1.4
O=S1(=O)CCO[C@H]2Cc3ccccc3[C@H]2N1Cc1ccccc1F	-4.5	.	i	.	0	-19	-10	-9.1	-5.9
O=C(C[C@H]1C[C@@H]2c3cc(NC(=O)C4CCOCC4)ccc3O[C@@H]2[C@H](CO)O1)NCc1ccc(Cl)cc1	-0.9	.	i	.	.	-2	-1	-1.1	.
O=C(/C=C/c1cccc([N+](=O)[O-])c1)NCCc1ccc(F)cc1	.	0.68	.	7%	6	.	.	.	1.1
C[C@H]1CCCCO[C@@H](CN(C)CC2CCCCC2)[C@@H](C)CN([C@@H](C)CO)C(=O)c2cc(NS(C)(=O)=O)ccc2O1	1.3	.	i	.	.	-1	5	5.3	.
COc1ccc(Nc2nc(NCc3ccco3)nc(N/N=C/c3ccccc3F)n2)cc1	7.1	.	i	25%	-4	-27*	5.3*	3.6*	-4.8
COC(=O)c1ccc(NC(=O)c2ccccc2NS(=O)(=O)c2ccccc2)cc1	-13	0.67	i	-5%	1	-57	-79	-32	-1.1
COC(=O)c1ccc2nc(-c3cccc(Cl)c3)c(CC3CCCCC3)n2c1	-2.1	.	i	.	.	-2	-6	23	3.0
CCC(=O)c1ccc(OCC(=O)N2CCc3cc(OC)c(OC)cc3C2)cc1	.	0.73	.	5%	-26	-2	6	3.3	2.9
CCc1c(O)nc(SCC(=O)N2CCCCC2)n(-c2ccccc2C)c1=O	7.0	0.69	i	-2%	63	9	0	-3.0	-0.4
COc1ccc(F)cc1C(=O)C1CCCN(Cc2ccc(Sc3nncn3C)o2)C1 (centres undefined)	1.2	0.73	i	.	13	6	-3	-0.6	0.5
O=C(CCC1CCCC1)N[C@@H](Cc1ccc(O)cc1)C(=O)O	0.1	.	i	-3%	2	9	-1	-3.8	-0.5
C=CCNC(=O)CN(c1ccc(F)cc1)S(=O)(=O)c1ccc(OC)cc1	.	0.75	.	8%	-2	.	.	.	0.5
CC(C)(C)OC(=O)NCCCCCNC(=O)c1[nH]cnc1C(=O)Nc1ccon1	0.3	0.71	i	.	-3	12	14	-2.2	-4.0
CCOc1cc(C=O)ccc1OCCn1c([N+](=O)[O-])cnc1C	3.8	0.68	i	.	-2	1	0	-3.9	2.9
CC(C)Cn1c(SCC(=O)NCCCN2CCCC2=O)nc2ccccc21	-11	0.58	i	-3%	.	2	0	-1.1	-0.9
O=C(COC(=O)CC1c2ccccc2CCN1S(=O)(=O)c1ccc(F)cc1)Nc1ccccc1 (centres undefined)	-16	0.66	i	.	.	-18	-28	-7.3	0.2
COc1cc(C(C(=O)NC(C)(C)C)N(C(=O)CNC(=O)c2cccs2)c2ccc(C(C)C)cc2)cc(OC)c1OC (centres undefined)	.	0.6	.	-5%	.	.	.	.	-1.6
COc1ccc(O)c(CN2CCC(n3nccc3NC(=O)CCOc3ccccc3)CC2)c1	5.8	0.68	i	-7%	2	0	-1	2.1	2.9
Cc1ccc(S(=O)(=O)N(C)C[C@@H]2OCCCC[C@@H](C)Oc3ccc(NC(=O)CCCN(C)C)cc3C(=O)N([C@@H](C)CO)C[C@H]2C)cc1	0.8	.	i	.	.	3	3	3.3	.
Cc1ccc(C(C)C)c(OCC(=O)NNCC(=O)Nc2cccc(F)c2)c1	0.3	0.65	i	.	-1	-7	0	1.4	-2.8
C[C@H]1CN([C@@H](C)CO)C(=O)c2cc(-c3ccc(C(=O)N(C)C)cc3)cnc2O[C@@H]1CN(C)C(=O)c1ccncc1	-0.6	.	i	.	.	8	15	-4.6	.
CC1CCN(CCCNC(=O)C2CCN(S(=O)(=O)N3CCCCC3)CC2)CC1	.	0.68	.	2%	-4	.	.	.	-1.5
S=C(Nc1ccc(CN2CCCCC2)cc1)Nc1cccc(Cl)c1Cl	11	0.69	i	.	63	9	2	0.4	3.8
Cn1c(/C=C/c2ccc(Br)cc2)c([N+](=O)[O-])c(=O)n(C)c1=O	4.5	0.67	i	2%	.	-11	-16	2.9	0.3
COc1ccc(-c2csc(NC(C)c3nc4cc(Cl)c(N5CCCCC5)cc4n3CCOCCO)n2)cc1 (centres undefined)	2.9	0.67	i	.	.	3	5	-2.7	3.1
C[C@@H]1CCCCO[C@@H](CN(C)S(=O)(=O)c2cn(C)cn2)[C@H](C)CN([C@@H](C)CO)C(=O)c2cc(NS(=O)(=O)c3cccs3)ccc2O1	-0.7	.	i	.	.	2	-2	-0.2	.
O=C(c1cccc(Cl)c1)N1CCN(C(=O)c2ccccc2F)CC1	.	0.78	.	-6%	-10	.	.	.	3.9
C[C@@H]1CN([C@@H](C)CO)C(=O)c2cc(NC(=O)Nc3cccc4ccccc34)ccc2O[C@@H](C)CCCCO[C@@H]1CN(C)S(=O)(=O)c1ccccc1	-10.0	.	i	.	.	-1	3	-4.0	.
O=C(/C=C(\c1ccccc1)n1cncn1)c1ccccc1	-5.8	0.7	i	24%	1	.	.	.	1.8
CC(C)NC(=O)Nc1ccc2c(c1)C(=O)N(C)[C@H]1CC[C@H](CC(=O)NCc3ccc(F)cc3)O[C@H]1CO2	1.5	.	i	.	.	-1	1	-0.8	.
CCc1ccccc1NC(=O)c1cnc2scc(C)n2c1=O	-11	0.72	i	-2%	3	-3	1	-2.7	-1.9
COc1ccc(NC(=O)N(C)C[C@H]2Oc3ccc(NS(=O)(=O)c4cn(C)cn4)cc3C(=O)N([C@H](C)CO)C[C@@H]2C)cc1	-4.2&-0.7	.	i	-7%	.	4&20	11&12	-1.3&1.3	1.2
C[C@@H]1CN([C@@H](C)CO)C(=O)c2cc(NC(=O)Nc3ccccc3)ccc2O[C@H]1CN(C)S(C)(=O)=O	-4.2	.	i	.	.	6	12	3.1	.
O=C(Nc1ccc(N2CCN(Cc3ccccc3Cl)CC2)cc1)c1cccnc1	.	0.73	.	-7%	0	.	.	.	-4.1
O=C(CSc1nnc(Cc2ccc3c(c2)OCO3)n1C1CCCCC1)NC1CCCC1	.	0.68	.	30%	16	.	.	.	-5.2
Cc1ccc(-n2nc(-c3ccc(OC(F)(F)F)cc3)cc2N)cc1C	-2.9	0.69	i	.	0	-18	-8	-4.2	10
COCCN(CCOC)C(=O)c1ccc(CSc2nc3ccccc3s2)cc1	0.5	0.7	i	1%	92*	-5	-28	3.6	0.0
Cc1c(C(c2ccc(O)cc2)c2c(C)n(C)n(-c3ccccc3)c2=O)c(=O)n(-c2ccccc2)n1C	-2.0	0.67	i	.	3	12	11	0.3	-32
Cc1noc(C)c1S(=O)(=O)N(C)C[C@@H]1OCCCC[C@H](C)Oc2ccc(NC(=O)Nc3ccccc3)cc2C(=O)N([C@@H](C)CO)C[C@H]1C	2.8	.	i	.	.	6	3	-0.1	.
Cc1cccc(N(CC(=O)NC2CCCC2)C(=O)CCCC(=O)Nc2ccccn2)c1	.	0.7	.	-2%	.	.	.	.	-0.1

A draw from above in order of formula weight, smallest number first.
SMILES	AF4-AF9 inh	E coli growth	FGF22 binding	Vif A3G	ALR H2O2 inh	rRNA inh HTS	rRNA inh HTS OD600	rRNA inh HTS RFP	HNF4A DNA FP
Cc1ccc(-n2nc(-c3ccc(OC(F)(F)F)cc3)cc2N)cc1C	-2.9	0.69	i	.	0	-18	-8	-4.2	10
O=C(Nc1ccc(N2CCN(Cc3ccccc3Cl)CC2)cc1)c1cccnc1	.	0.73	.	-7%	0	.	.	.	-4.1
Cc1noc(C)c1S(=O)(=O)N(C)C[C@@H]1OCCCC[C@H](C)Oc2ccc(NC(=O)Nc3ccccc3)cc2C(=O)N([C@@H](C)CO)C[C@H]1C	2.8	.	i	.	.	6	3	-0.1	.

The list goes on:
SMILES	AF4-AF9 inh	E coli growth	FGF22 binding	Vif A3G	ALR H2O2 inh	rRNA inh HTS	rRNA inh HTS OD600	rRNA inh HTS RFP	HNF4A DNA FP
Cc1c(O)c2ccccc2oc1=O	-2.3	0.7	i	-2%	6	1	0	-0.4	0.1
Cc1ccccc1-n1nc(C)c2cc(C(=O)N3CCN(S(=O)(=O)c4ccc(Cl)cc4)CC3)sc21	.	0.72	.	-3%	-5	.	.	.	1.1
CCCCn1c(=O)c2ccccc2n2c(=S)[nH]nc12	-4.6	0.65	i	.	15	-9	-10	0.0	0.8
CCCN(C)C[C@H]1OCCCC[C@@H](C)Oc2ccc(NC(=O)NC(C)C)cc2C(=O)N([C@H](C)CO)C[C@@H]1C	-1.0	.	i	.	.	5	8	-2.5	.
CN(C)c1ccc(/C=N/NC(=O)CCc2nc3ccccc3[nH]2)cc1	15	.	i	-5%	30	-14	3	2.1	-1.9
COc1cccc(C(=O)N2CCC(N3CC(C)OC(C)C3)CC2)c1 (centres undefined)	.	0.71	.	.	-1	.	.	.	-31
O=C(NC1=NCCS1)C1CC(=O)N(c2ccccc2)C1 (centres undefined)	.	0.72	.	-8%	-1	.	.	.	1.5
O=C(CCCC(=O)Nc1ccccc1Br)N/N=C/c1c(F)cccc1Cl	0.6	.	i	.	-2	-4	-6	0.4	6.1
COC(=O)[C@@H]1C2CCC(C(=O)Nc3ccccc3)(CC2)[C@@H]1C(=O)OC	.	0.78	.	-1%	16	.	.	.	2.6
O=C(c1ccco1)N1CCCC(c2nc3c(nnn3Cc3ccccc3)c(=O)[nH]2)C1 (centres undefined)	-2.1	0.66	i	.	2	-2	-8	0.1	0.3
CCOC(=O)Cn1nnnc1C(CC)N(Cc1cccs1)Cc1cc2ccc(OC)cc2[nH]c1=O (centres undefined)	.	0.64	.	15%	-4	.	.	.	-2.5
Cc1cccc(NC(=O)CC2Nc3cccc4cccc(c34)NC2=O)c1 (centres undefined)	17	0.75	i	20%	20	-16	22	-1.5	1.9
COc1ccc(C2N=C(Nc3ccc(C)cc3)Nc3nc(C)cc(=O)n32)cc1 (centres undefined)	.	0.66	.	2%	-2	.	.	.	0.4
Fc1ccccc1-n1[nH]nnc1=S	.	0.69	.	4%	-4	.	.	.	-1.2
COc1cc(-c2nc3oc4ccccc4c(=O)c3c(=O)n2Cc2ccco2)cc(OC)c1OC	.	0.69	.	?	2	.	.	.	1.0
